# Assay outcomes as filed in PubChem BioAssay.
# HPGD block – blocks human HPGD enzyme activity. P15428. purified HPGD, NADH fluorescence kinetic, PGE2 substrate. Potency, µM, inactives show at the top dose activity change, negative = inhibition, usual class: inhibitors. 150,000 compounds, 4.3% hits. AID 894; active = well fitted inhibition curve with a large enough effect (not every such curve was filed as active); inconclusive = small, poorly fitted or top-dose-only effect, or another doubt; inactive = no such curve, though single readings can be large or run the other way;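 further: top concentration of the series not given in the record; plate controls included wells without enzyme; inactives centre near -10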
# Target sequence (P15428 whole entry, looked up): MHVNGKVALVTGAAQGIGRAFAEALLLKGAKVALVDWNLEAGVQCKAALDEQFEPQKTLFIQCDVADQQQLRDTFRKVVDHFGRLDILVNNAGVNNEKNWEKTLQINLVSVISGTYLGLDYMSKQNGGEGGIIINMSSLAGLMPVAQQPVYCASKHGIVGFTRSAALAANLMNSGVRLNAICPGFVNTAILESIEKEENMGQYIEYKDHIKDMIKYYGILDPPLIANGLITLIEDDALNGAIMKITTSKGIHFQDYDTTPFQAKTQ
#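 20 nM HPGD preincubated 15 min at room temperature with compound in 50 mM Tris-HCl pH 8, 0.01% Tween 20. Started with 1 mM NAD+ and 30 uM prostaglandin E2; NADH fluorescence (360/450 nm) read 5 times over 30-s intervals, last minus first.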
# Starred values were filed as active, the others as inactive; u = inconclusive; & = joins results of further samples; [ ] = another dose, or the depositor's remark. On the % scale 0 is the no-effect control and ±100 the full control effect; potency means the concentration at half of the fitted maximal effect. This is a subset; count on the stated rates, not on these rows.
SMILES,HPGD block
CCc1ccc(N(C(=O)CNC(=O)c2cccs2)C(C(=O)NC(C)(C)C)c2cc(OC)c(OC)c(OC)c2)cc1 (stereo not given),-9.4%
CCOc1ccccc1NC(=O)c1nc[nH]c1C(=O)Nc1ccccc1OCC,u
CC(C)(/C=N/O)/[N+]([O-])=C/c1ccco1,-2.9%
CCOC(=O)c1cc2sccc2n1Cc1ccccc1,-1.8%
O=C1/C(=C\c2ccc(-c3ccccc3[N+](=O)[O-])o2)C(c2ccccc2)=NN1c1ccccc1,u
O=C(/C=C/c1ccc(Cl)cc1)N1CCN(c2ccc([N+](=O)[O-])c(N3CCOCC3)c2)CC1,-26.7%
O=C(CSc1nnc(CNC(=O)c2ccccc2F)o1)c1ccccc1,-1.2%
O=C(Nc1ccc2c(c1)OCO2)c1ccc(Br)c(S(=O)(=O)N2CCCC2)c1,-15.4%
COc1ccc(C(=O)NCc2ccccc2)cc1S(=O)(=O)N1CCCc2ccccc21,-10.9%
CC12CCC(C(=O)NNc3ccc([N+](=O)[O-])cc3)(CC1=O)C2(C)C (stereo not given),-19.6%
O=C1NC(=Nc2ccccc2)S/C1=C\c1cccn1-c1ccccc1,-17.1%
COc1cc([N+](=O)[O-])ccc1NC(=O)CCCOc1ccccc1,-16.1%
O=C(Nc1nnc(SCc2ccc(F)cc2)s1)c1ccc2ncsc2c1,-19.2%
FC(F)(F)c1ccc(N2CCN(Cc3ccc4c(c3)OCO4)CC2)nc1,-10.5%
CC(=O)c1ccc(NC(=O)C2CCCN2S(=O)(=O)c2ccc(C)cc2)cc1 (stereo not given),-2.2%
CC(C)CNC(=O)c1cccc(NC(=O)c2ccc(Cl)c([N+](=O)[O-])c2)c1,-21.9%
Cc1ccc(CNC(=O)COc2ccc(C(=O)c3ccc(F)cc3)cc2)cc1,39.8µM*
COC(=O)c1cc(Br)c(=O)n(Cc2ccc(OC)c(OC)c2)c1,-10.0%
COc1cc(-c2nnn(CC(=O)NC3CCS(=O)(=O)C3)n2)ccc1OCc1ccccc1 (stereo not given),-17.4%
Cc1c(C(=O)O)oc2ccc(S(=O)(=O)N3CCC(C)CC3)cc12,11.2µM*

# 3 of the entries above in order of the HPGD block value, largest number first:
Molecule	HPGD block
CC(=O)c1ccc(NC(=O)C2CCCN2S(=O)(=O)c2ccc(C)cc2)cc1 (stereo not given)	-2.2%
FC(F)(F)c1ccc(N2CCN(Cc3ccc4c(c3)OCO4)CC2)nc1	-10.5%
O=C1NC(=Nc2ccccc2)S/C1=C\c1cccn1-c1ccccc1	-17.1%

# Next part:
SMILES,HPGD block
C=C(C)C(=O)/C=C/C=C/c1ccccc1,-4.4%
COc1ccc2nc3sc(C(=O)NCCCN4CCc5ccccc5C4)cc3cc2c1,-22.2%
CCNc1ncc2nc(-c3ccc(F)cc3)c(=O)n(CCC#N)c2n1,u
Cc1ccc2c(Cn3cc(C(F)(F)F)cc(Cl)c3=O)cc(=O)oc2c1,-4.7%
COC(=O)c1ccc2c(=O)n(CCCCCC(=O)NCc3ccccc3)c(=O)[nH]c2c1,-28.5%
O=C(O)c1ccc(-n2cccc2)cc1O,u
CN(C)S(=O)(=O)c1cccc(C(=O)N2CCN(Cc3ccccc3)CC2)c1,-7.5%
COc1ccc(C(=O)Nc2ccc(C)cc2C(=O)c2ccccc2)c(OC)c1,-13.3%
COc1ccc(OC)c(NS(=O)(=O)c2cc(OC)ccc2OC)c1,-13.8%
CCN(CC)S(=O)(=O)c1ccc2nc(COC(=O)c3n[nH]c4ccccc34)[nH]c2c1,-24.8%

# In the list so far, 3 contain an NH in an aromatic ring.
SMILES,HPGD block
CCOc1ccccc1NC(=O)c1nc[nH]c1C(=O)Nc1ccccc1OCC,u
COC(=O)c1ccc2c(=O)n(CCCCCC(=O)NCc3ccccc3)c(=O)[nH]c2c1,-28.5%
CCN(CC)S(=O)(=O)c1ccc2nc(COC(=O)c3n[nH]c4ccccc34)[nH]c2c1,-24.8%

# Other records.
SMILES,HPGD block
COc1ccc(CC(=O)NCc2ccc3c(c2)OCO3)cc1,-5.9%
O=C1Nc2ccc(S(=O)(=O)N3CCOCC3)c3cccc1c23,u
CCNC(=S)NNC(=O)c1cc(-c2cc(C)ccc2C)nc2ccccc12,-11.3%
COc1cc(/C=C/c2c([N+](=O)[O-])c(=O)n(C)c(=O)n2C)cc(OC)c1OC,-6.5%
COc1ccc(OC)c(/C=N/NC(=O)c2ccc(Cn3cc([N+](=O)[O-])cn3)o2)c1,u
Cc1csc(NC(=O)c2cc3c(s2)CCCCC3)n1,25.1µM*
Nc1c(N=Nc2ccc(-c3ccc(N=Nc4cc(S(=O)(=O)O)c5ccccc5c4N)cc3)cc2)cc(S(=O)(=O)O)c2ccccc12,15.8µM*
CCCCn1nc2cc(C(=O)NC[C@@H]3CCCO3)ccc2c1OCC,u
Cc1cccc(OCCCC(=O)Nc2ccc(S(=O)(=O)Nc3onc(C)c3C)cc2)c1C,-19.7%
Cc1cccc(NC(=O)/C(=C\c2ccc([N+](=O)[O-])o2)NC(=O)c2ccc(Cl)cc2)c1,-27.6%
COc1cccc(CNC(=O)c2ccccc2N)c1,u
Cc1ccc(NC(=O)CCCC(=O)O)c(Br)c1,-5.9%
Cc1cc(C)n2nc(CC(=O)NC3CCCCCC3)nc2n1,-11.8%
Cc1ccccc1CN1CCc2c(OCC(=O)N3CCCc4ccccc43)cccc2C1=O,2.2%
O=C(Nc1ccccc1C(F)(F)F)N1CCC(n2c(=O)[nH]c3ccccc32)CC1,-15.2%
CCN1C2=C(C(=O)CCC2)C(c2ccc(O)c(Br)c2)C2=C1CCCC2=O,-16.8%
O=C(CCN1CCCCCC1)c1ccccc1,-8.4%
CCOc1ccccc1NC(=O)C(OC(=O)c1ccccc1O)c1ccccc1 (stereo not given),48.4%[activator]
CCCOC(=O)c1ccc(NC(=O)CCOc2ccccc2)cc1,-17.6%
C/C(CC(=O)N1CCN(C=O)CC1)=N\NC(=O)c1cc2ccccc2cc1O,-20.7%
CC1Cc2ccccc2N1C(=O)CSc1nc(N)cc(=O)[nH]1 (stereo not given),-8.8%
Nc1ncnc2c1ncn2[C@@H]1O[C@H](C(=O)NC2CC2)[C@H](O)[C@H]1O,-17.6%
CCOc1ccc(-c2nn[nH]n2)cc1,-13.7%
CCCOc1ccc(-c2nn(-c3ccccc3)cc2/C=C2\SC(=S)N(C3CCS(=O)(=O)C3)C2=O)cc1 (stereo not given),-12.9%
COCCn1c(-c2ccccc2F)n[nH]c1=S,-23.2%
COc1cc(Cn2c(-c3nonc3N)nc3ccccc32)ccc1C,-4.3%
COCCn1nnnc1C(c1cc2cc(C)ccc2[nH]c1=O)N1CCc2ccccc21 (stereo not given),-22.4%
Cc1ccc2oc3c(c(=O)c2c1)C(c1cccc(O)c1)N(c1ccccn1)C3=O (stereo not given),-10.9%
Cc1nc(Nc2ccc(Cl)cc2Cl)sc1C(=O)Nc1ccccc1,-25.0%
Cc1ccccc1Cn1nc(C)c(NC(=O)C2(C)CC2(Cl)Cl)c1C (stereo not given),-3.9%
CCOc1ccc(/C=N/Nc2ccc(C(F)(F)F)cc2[N+](=O)[O-])cc1O,-27.1%
c1ccc(Nc2nc(-c3cccnc3)cs2)nc1,-11.0%
COc1ccc(N=c2scc(-c3ccc(S(=O)(=O)N4CCOCC4)cc3)n2CCCO)cc1,-13.0%
COc1ccc(NC(=O)c2cnn3c(C(F)(F)F)cc(-c4ccco4)nc23)cc1OC,-4.7%
CN(c1ncc(C(F)(F)F)cc1Cl)n1cc(C(N)=O)c2ccccc2c1=O,-5.4%
Cc1cccc(NC(=O)CCCN2C(=O)c3cccc4cccc(c34)C2=O)c1,-10.5%
CCCc1cc2c(cc1NC(=O)c1ccccc1C)OCO2,-5.2%
CCN1CCN(C(=O)CCNC(=O)Cn2ccc3ccccc3c2=O)CC1,-22.6%
CSc1nc(N)nc(SCC(=O)OC(C)C)c1C#N,-15.3%
Cc1cc(-n2ccnc2)n2c(nc3ccccc32)c1C#N,-16.0%
O=C(CSCCN1C(=O)c2ccccc2C1=O)Nc1ccc2ccccc2c1,-13.4%
O=C(Nc1nccs1)c1ccc(COc2ccccc2Br)o1,-24.6%
CCOc1ccc(OCC)c(-c2c(=O)n(OCc3ccccc3Br)c3ccccc3[n+]2[O-])c1,-16.2%
Cc1nc2nc(-c3cccnc3)[nH]n2c(=O)c1C,-2.8%
CCSCCOC(=O)C1=C(C)NC2=C(C(=O)CCC2)C1c1coc2ccccc2c1=O (stereo not given),-1.8%
C#CCCOC(=O)N1C2=NC(C(=O)OC)=C(C(=O)OC)[C@@H]3N(C)c4ccccc4[C@]23C[C@H]1C(=O)OC,3.6%
Cc1cccc(OCC(=O)OC2CCN(C)CC2)c1,0.9%
Cc1ccc(C(=O)CSc2nnc3c4ccccc4nc(Cc4ccccc4)n23)cc1,-11.6%
Cc1cc(OCC(F)(F)C(F)(F)C(F)(F)C(F)(F)C(F)(F)C(F)F)nc(N)n1,-18.5%
Cc1cc(C)c(-c2noc(C(=O)OC(C)(C)C)c2C(=O)OC(C)(C)C)c(C)c1,-24.4%

# More entries:
SMILES,HPGD block
CCCCc1ccc(-c2ccc(Br)cc2)nc1,-19.4%
COC(=O)c1ccc(NC(=O)CSc2ccccc2)cc1,-12.7%
COC(=O)c1ccc(NC(=O)CCN2CCCCC2)cc1,-10.0%&-2.2%
C=CCOc1cccc(C2/C(=C(/O)c3ccc(F)cc3)C(=O)C(=O)N2CCN2CCOCC2)c1 (stereo not given),-13.1%
COC(=O)C(C)n1cnc2c(nnn2Cc2ccc(Cl)cc2)c1=O (stereo not given),28.2µM*
Cc1ccc(S(=O)(=O)N2CCN(c3cnn(-c4ccccc4)c(=O)c3Cl)CC2)cc1,-0.9%
CC(C)(C)C(=O)[C@@H]1[C@@H]2C(=O)N(c3ccc4c(c3)OCCO4)C(=O)[C@@H]2C2c3ccccc3C=CN21 (stereo not given in full),u
CCc1ccc(C(=O)CSc2nc3ccccc3c(=O)[nH]2)cc1,-16.9%
COc1ccc(NC(=S)N/N=C2/CCCc3c(C)cc(C)cc32)cc1,-7.0%
CSCCC(C(=O)OCC(=O)c1ccc(C)c(C)c1)N1C(=O)c2ccccc2C1=O (stereo not given),-7.5%

# 3 compounds picked at random from those above:
SMILES,HPGD block
COc1cc([N+](=O)[O-])ccc1NC(=O)CCCOc1ccccc1,-16.1%
COc1ccc(NC(=S)N/N=C2/CCCc3c(C)cc(C)cc32)cc1,-7.0%
CCOc1ccc(/C=N/Nc2ccc(C(F)(F)F)cc2[N+](=O)[O-])cc1O,-27.1%

# The listing continues:
SMILES,HPGD block
C/C(=N/NC(=O)CN1CCN(S(=O)(=O)c2ccc(Br)cc2)CC1)c1cccnc1,0.2%
COc1ccc(N(C)S(=O)(=O)c2cccc(C(=O)Nc3ccc(OC)nc3)c2)cc1,-13.1%
Cc1sc(NC(=O)C(C)C)c(C(=O)Nc2ccccc2)c1C,-2.8%
Cc1ccc(S(=O)(=O)C2(C(=O)Nc3cccc(F)c3)CC2)cc1,-1.0%
COc1cc(C2C(C#N)=C(N)N(Nc3ccccc3)C3=C2C(=O)CC(C)(C)C3)ccc1OCc1cccc(F)c1 (stereo not given),u
COc1ccc(N2CCN(C(=O)CSc3nnc4n3C(C)(C)Cc3ccccc3-4)CC2)cc1,-13.8%
Nc1nc2c(c(=O)[nH]1)CN(c1ccc(S(N)(=O)=O)cc1)CN2,-5.0%
CCOC(=O)c1cc2ccc3ccccc3c2s1,-25.3%
CCSc1n[nH]c(=O)[nH]c1=O,-11.7%
Cc1ccc2nc(-c3ccc4c(c3)OCCO4)cc(C(=O)O)c2c1,-10.5%
COc1ccc(Cl)cc1N(CC(=O)NC(C(C)C)C(C)C)S(C)(=O)=O,-15.2%
CCOC(=O)c1sc2nc(SCC#N)n(CCCN3CCCC3=O)c(=O)c2c1C,u
O=C(Cc1ccccc1)Nc1nc(=O)c2ccccc2s1,-7.3%
CCCCn1c(=O)nc2n(-c3ccc(C)cc3)c3ccccc3cc-2c1=O,u
CCOC(=O)C1=C(C)NC(=O)C(C(N)=O)C12CCCCC2 (stereo not given),-13.4%
COCCn1c(C)cc(C2=NNC(=Nc3ccc(F)cc3)SC2)c1C,u
CCOC(=O)C1CCCN(c2cc(=O)n(-c3ccccc3Cl)c(=O)[nH]2)C1 (stereo not given),-5.4%
Cc1cc(SCC(=O)N/N=C/c2ccc(O)c(O)c2O)c(C)cc1Br,10µM*
O=C(Nc1c(-c2ccccc2)nc2ccccn12)c1cccs1,-7.2%
CCCC(=O)NC(C)c1nc2ccccc2n1C(C)C (stereo not given),3.7%
Cc1ccsc1/C=C/c1ccc2cccc(O)c2n1,-17.3%
CCOc1ccc(NC(=O)C(C)SC(N)=O)cc1 (stereo not given),-9.0%
O=C1/C(=C/c2ccc(C(=O)O)cc2)CCC/C1=C\c1ccc(C(=O)O)cc1,20µM*
Cc1ccc(C(=O)N/C(=C/c2ccc(-c3ccc(Br)cc3)o2)C(=O)NC2CCS(=O)(=O)C2)cc1 (stereo not given),u
COc1ccc(S(=O)(=O)Nc2ccc(N(C)C(C)=O)cc2)cc1,-3.6%
O=C(/C=C/c1ccccc1)c1ccc(O)cc1,-19.0%
Cc1ccc(C(=O)c2c[nH]c3c(F)cc(F)cc3c2=O)cc1,-7.8%
Cc1ccc(S(=O)(=O)NCCC(=O)OCn2nnc3ccccc3c2=O)cc1,-9.8%
CCn1c2ccccc2c2cc(NC(=O)C3CCN(S(=O)(=O)c4cccs4)CC3)ccc21,-11.1%
O=c1cc(CO)oc(CN2CCN(c3ccccc3)CC2)c1O,-8.4%
CCC(C)(C)n1nnnc1C(c1ccc(N(C)C)cc1)N1CCN(C2CCCCC2)CC1 (stereo not given),-1.5%
CN(C)S(=O)(=O)c1ccc(C(=O)Nc2nnc(SCc3ccccc3)s2)cc1,u
CC(C)N=C(NC#N)SCc1ccccc1,-11.3%
Cc1ccc(S(=O)(=O)N2CCC(C(=O)N[C@@H](C)C(=O)NC3CCCCC3)CC2)cc1,-6.6%
COC(=O)[C@H](NC(=O)c1cc(-c2ccccc2)nc2ccccc12)c1ccccc1,-13.6%&-23.2%
